HPGD inh – inhibitors of human 15-hydroxyprostaglandin dehydrogenase (HPGD); P15428; 150,000 compounds, 4.3% hits; AID 894; purified HPGD, NADH fluorescence kinetic, PGE2 substrate; Potency, µM, for inactives: top-dose activity change, negative = inhibition, usual class: inhibitors; active = well fitted inhibition curve with a large enough effect (not every such curve was filed as active); inconclusive = small, poorly fitted or top-dose-only effect, or another doubt; inactive = no such curve, though single readings can be large or run the other way;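 further: top concentration of the series not given in the record; plate controls included wells without enzyme; inactives centre near -10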
Target sequence (P15428 whole entry, looked up): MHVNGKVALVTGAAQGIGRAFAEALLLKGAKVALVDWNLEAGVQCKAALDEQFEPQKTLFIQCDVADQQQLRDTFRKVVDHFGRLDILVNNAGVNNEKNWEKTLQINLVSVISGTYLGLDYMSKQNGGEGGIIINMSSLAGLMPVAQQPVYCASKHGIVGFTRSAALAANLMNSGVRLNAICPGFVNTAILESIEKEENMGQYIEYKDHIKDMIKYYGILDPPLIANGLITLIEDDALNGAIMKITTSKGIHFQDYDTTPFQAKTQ
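NADH formation kinetics: reaction with 30 uM PGE2 and 1 mM NAD+ (final), 20 nM enzyme, Tris-HCl pH 8 with Tween 20, after 15 min compound preincubation at room temperature. Fluorescence change, last versus first of five reads.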
* = called active by the depositor; ? = inconclusive; & = joins results of further samples. On the % scale 0 is the no-effect control and ±100 the full control effect; potency means the concentration at half of the fitted maximal effect. This is a subset (hit frequency here may not be typical).

SMILES	HPGD inh
Cc1ccc(NC(=O)C2=CCN(S(=O)(=O)c3ccc(F)cc3)CC2)c(C)c1	-9%
CCCN(CCC)C[C@@H]1CCCCN1CCNC(=O)N1c2ccccc2C(=O)Nc2cccnc21	-8%
C=CC[C@@](C(C)=O)(C(=O)OC)C(NC(=O)OC)c1ccccc1 (some centres undefined)	-8%
Cc1nn(Cc2ccc(Cl)cc2Cl)c(C)c1NC(=O)CCl	-12%
COc1ccc(NC(=O)C2CCC(C(C)(C)C)CC2)cc1S(=O)(=O)N1CCCCC1 (centres undefined)	-17%
CCOC(=O)COc1cc2c3c(c(=O)oc2cc1C)CCCC3	?
COC(=O)CC1C(C)(C)C(=O)C2CC3=C4CC(=O)OC(c5ccoc5)[C@]4(C)CCC3[C@@]1(C)C2=O (some centres undefined)	0%
O=C(CN(C(=O)CCC(=O)Nc1nccs1)c1ccc2c(c1)OCCO2)NCc1ccco1	-5%
CC(C)Nc1oc(-c2cccc3ccccc23)nc1C#N	?
O=C(CSc1cccc(C(F)(F)F)c1)NCc1ccccc1	-4%
COc1cc(-c2nc3c[n+](CC(=O)c4ccccc4)ccc3n2C)cc(OC)c1OC	-6%
COc1cc(CNC2CCCC2)cc(Cl)c1OCc1ccc(F)cc1	0%
CN(C)c1cccc(C(=O)OCC(=O)NCC2CCCO2)c1 (centres undefined)	-19%
O=C(/C(=C(\[O-])c1ccccc1)[n+]1ccc2ccccc2c1)c1ccccc1	-9%
Cn1c(=O)n(CCCOc2ccc(Cl)cc2)c2ccccc21	-23%
Cc1ccc(CCNC(=O)c2nnn(-c3cc(C)cc(C)c3)c2N)cc1	-14%
OC(COCc1cccs1)CN1CCN(c2cccc(Cl)c2)CC1 (centres undefined)	-14%
COc1ccc(S(=O)(=O)Nc2nnc(C)s2)cc1	32µM*
COC(=O)[C@H](COC(C)(C)C)NC(=O)O[C@H]1C(=O)c2ccc(OC)cc2O[C@@H]1c1ccc2c(c1)OCO2	-10%
Cc1ccc(CSCc2nnc(SCC(=O)N3CCN(c4ccccc4)CC3)n2C)cc1	-19%
CC[C@H](C)[C@H](N)C1=N[C@H](C(=O)N[C@@H](CC(C)C)C(=O)N[C@@H](CCC(=O)O)C(=O)N[C@@H](C(=O)N[C@H]2CCCCNC(=O)[C@@H](CC(N)=O)NC(=O)[C@@H](CC(=O)O)NC(=O)[C@@H](Cc3cnc[nH]3)NC(=O)[C@@H](Cc3ccccc3)NC(=O)[C@@H]([C@@H](C)CC)NC(=O)[C@@H](CCCN)NC2=O)[C@@H](C)CC)CS1	4%
COc1ccc(S(=O)(=O)N2CCC(C(=O)NCc3ccccn3)CC2)cc1Cl	3%
Cc1c(NS(=O)(=O)c2ccccc2)cc(Cl)c(O)c1C	32µM*
CCn1cc(C(=O)N2CCc3ccccc32)c(=O)c2cc(S(=O)(=O)N3CCCCCC3)ccc21	-10%
CCOC(=O)c1cc(NC(=O)c2ccc(Cl)cc2)c(=O)oc1-c1ccccc1	-8%
C/C(=N/NC(=O)Cc1cccs1)c1ccco1	-3%
CCN(CC)c1ccc(C(=O)OCC(=O)N2CCN(c3ccccc3)CC2)cc1	-1%
COc1ccc(S(=O)(=O)Nc2ccc3oc(C)c(C(C)=O)c3c2)cc1	-11%
CN(C)c1nc(NCc2ccccc2)nc(N/N=C/c2ccc(Cl)cc2Cl)n1	-10%
Cc1ccc(CNC(=O)c2cn(C)c(=O)c3c2c2ccccc2n3C)o1	-4%
COC(=O)c1c(C)oc2ccc(N(C(=O)c3ccncc3)S(=O)(=O)c3ccc4ccccc4c3)cc12	-14%
O=C(CN1C(=O)S/C(=C\c2ccc(Cl)cc2)C1=O)NNC(=O)c1ccccc1O	-9%
CCCCCCCC(=O)N/N=C/c1ccco1	-5%
Cc1ccc(N2CC(c3nc4ccccc4n3C)CC2=O)cc1C (centres undefined)	-6%
CN1CCN(Cc2c(O)ccc3c(=O)c(Oc4ccccc4Cl)c(C(F)(F)F)oc23)CC1	-3%
O=C(Nc1ccc2c(c1)OCO2)N1CCN(c2ncc(C(F)(F)F)cc2Cl)CC1	?
Cc1ccc(-c2noc(CSc3ccccc3)n2)cc1	-16%
N#Cc1c(-c2ccc(C(F)(F)F)cc2)cc(-c2ccccc2)[nH]c1=S	-10%
CN(CCOC(=O)c1cccc(Br)c1)C(C)(C)C	-16%
CCOC(=O)c1[nH]c2ccccc2c1N=CN(CC)CC	-15%
O=C(NC(=S)NCCN1CCOCC1)c1ccc(Cl)cc1	-5%
COc1ccc(/C=C2\SC(=O)N(CC(=O)NNC(=O)c3ccccc3O)C2=O)cc1	?
CN1C(=O)CC[C@@H]1c1cccnc1	-6%
O=C(Nc1nnc(SCc2ccc(Cl)cc2)s1)c1ccco1	-16%
Cc1cc(C(=O)N2CCCC2C(=O)O)c(C)o1 (centres undefined)	-5%

Four entries from above, in CSV form.
Compound,HPGD inh
Cc1ccc(N2CC(c3nc4ccccc4n3C)CC2=O)cc1C (centres undefined),-6%
CN1CCN(Cc2c(O)ccc3c(=O)c(Oc4ccccc4Cl)c(C(F)(F)F)oc23)CC1,-3%
O=C(Nc1ccc2c(c1)OCO2)N1CCN(c2ncc(C(F)(F)F)cc2Cl)CC1,?
Cc1ccc(-c2noc(CSc3ccccc3)n2)cc1,-16%

(list continues)
SMILES	HPGD inh
CC1(O)CCC(C(C)(C)O)CC1 (centres undefined)	-17%
O=[N+]([O-])c1ccc(Cl)c(/C=N/Nc2nc(N3CCOCC3)nc(N3CCOCC3)n2)c1	-19%
Cc1cc(C(=O)NCC(=O)OCC(=O)Nc2ccc(OC(F)F)cc2)ccc1[N+](=O)[O-]	-27%
O=C(Oc1ccccc1)N1CCC2(CC1)CCN(c1cccc(-c3ccccc3)c1)CC2	-2%
CCc1cc(=O)oc2c(C)c(OCC(=O)N3CCCc4ccccc43)ccc12	?
c1ccc(-c2ccccc2OCCOCCN2CCCCC2)cc1	-4%
Cc1cc(Cl)ccc1OCC(=O)N/N=C1\CC2C=CCC12 (centres undefined)	-9%
Cc1cc(=O)oc(C)c1C(=O)OCC(=O)c1ccc(Br)cc1	-27%
C=CCc1cccc(/C=N/NC(=O)CCC(=O)Nc2ccc(F)cc2)c1O	-16%
O=C(COC(=O)[C@H](Cc1ccccc1)NC(=O)c1ccco1)NC(c1ccccc1)c1ccccc1	-5%
CCCCN1CCc2c([nH]c3ccc(C)cc23)C1=O	?
CCCc1cc(=O)[nH]c(/N=C(/NC(=O)C(C)N2C(=O)c3ccccc3C2=O)Nc2ccccc2)n1 (centres undefined)	-9%
Cn1c(CCN2CCOCC2)nc2cc(NC(=O)COc3ccc(Cl)cc3)ccc21	-7%
CCOC(=O)C1=C(C)NC(C)=C(C(=O)OCC)C1C(=O)OCC(=O)N1CCc2ccccc21	-19%
Fc1cccc(NC(=S)NCCc2ccccc2)c1	-24%

Overlap with the part before: 4 compounds, then new ones.
SMILES	HPGD inh
CCCc1cc(=O)[nH]c(/N=C(/NC(=O)C(C)N2C(=O)c3ccccc3C2=O)Nc2ccccc2)n1 (centres undefined)	-9%
Cn1c(CCN2CCOCC2)nc2cc(NC(=O)COc3ccc(Cl)cc3)ccc21	-7%
CCOC(=O)C1=C(C)NC(C)=C(C(=O)OCC)C1C(=O)OCC(=O)N1CCc2ccccc21	-19%
Fc1cccc(NC(=S)NCCc2ccccc2)c1	-24%
Cc1nc2ccc(S(=O)(=O)NCC(=O)N3CCCCC3)cc2s1	-2%
CCc1c(C)nc(N)n2c(SCC(=O)N3CCN(c4ccccc4F)CC3)nnc12	-9%
CCCCCCC1C(C#N)=C(N)OC2=C1C(=O)CCC2 (centres undefined)	?
CC#CCN(CC#CC)S(=O)(=O)c1ccc(-n2cnnn2)c(OC)c1	-6%
CCCc1ncc(C[n+]2ccccc2C)c(N)n1	-8%&-10%
COc1cc(C(C)=O)ccc1Oc1ncnc2c1cnn2-c1cccc(Cl)c1	-25%
NCCCC[C@@H]1NC(=O)[C@H](CCC(=O)O)NC(=O)c2cc([N+](=O)[O-])cc(I)c2NCC[C@@H](C(N)=O)NC1=O	-9%
Cc1ccc2cccc(S(=O)(=O)n3nc(C)cc3C)c2n1	-1%
COc1cc(NC(=O)COC(=O)/C=C/c2ccccc2Cl)cc(OC)c1	-6%
CCN(CC(=O)Nc1ccc2c(c1)OCCO2)Cc1cc(=O)oc2cc(C)c(C)cc12	-12%
COc1ccc(OC2C(=O)N(c3cc(C)ccc3C)C2c2ccc(OC)c(OC)c2)cc1 (centres undefined)	-7%
COc1ccc(C(=O)Nc2ccc(S(=O)(=O)N3CCCCC3C)cc2)c(OC)c1OC (centres undefined)	?
O=C(NCc1cccnc1)c1ccc(CN2CCc3ccccc3C2)cc1	-15%
COc1ccc(C(NC(=O)c2c(F)c(F)c(F)c(F)c2F)c2ccccc2)cc1 (centres undefined)	-17%
O=C(Nc1ccc(F)cc1F)c1ccc(COc2c(F)c(F)cc(F)c2F)o1	-18%
COC(=O)c1c(C)nc2c(c(SC)nn2-c2ccccc2)c1N	?
Cn1c(SCC(=O)N2CCCc3ccccc32)nnc1-c1ccccc1	-8%
COc1ccc(C(=O)NC2(C(F)(F)F)N=C3SCCN3C2=O)cc1 (centres undefined)	-17%
CC1CCN(C(=O)CSc2nc3[nH]ncc3c(=O)[nH]2)CC1	-17%
O=C(Nc1cc2c(ccc3ccccc32)oc1=O)C1CCCCC1	-25%
Cc1ccc(COc2coc(CO)cc2=O)cc1	1%
Cc1ccc2c(c1)NC(=O)C(CC(=O)Nc1ccc(CN3CCC(C)CC3)cc1)O2 (centres undefined)	-16%
CCC(=O)OCC(=O)C1(OC(=O)CC)C(C)CC2C3C(Cl)CC4=CC(=O)C=C[C@@]4(C)C3C(O)C[C@@]21C (some centres undefined)	-14%
COCCN(C(=O)C(F)(F)F)C(C(=O)NC1CCCCC1)c1ccco1 (centres undefined)	-11%
C[n+]1ccn(CC(=O)c2ccc(Cl)cc2)c1	-7%
CC(C)C(=O)NC(=S)Nc1ccc(S(=O)(=O)NC(C)(C)C)cc1	?
CC(C)CC(=O)NC(=S)NCc1ccccc1	-19%
CNCC[C@@H](Oc1ccccc1C)c1ccccc1	-6%
COc1cc2ccc(=O)oc2c(O)c1OCC=C(C)C	-4%
O=C(Nc1cccc(F)c1)c1cc(S(=O)(=O)NCCC2=CCCCC2)ccc1F	-15%
N#Cc1ccc(NC(=O)N2CCC(c3nc4c(nnn4Cc4cccc(Cl)c4)c(=O)[nH]3)CC2)cc1	14µM*
COc1ccc(C)cc1NC(=O)CN(C)S(=O)(=O)c1cccs1	3%
CC(=O)N1N=C(c2ccc(C)o2)CC1c1ccc(Br)cc1 (centres undefined)	-13%
Cc1ccc(-c2c[n+](CC(=O)N3c4ccccc4Sc4ccccc43)c3n2CCC3)cc1	3%
CCOC(=O)c1c(C)[nH]c(C(=O)COC(=O)c2ccc(N3CCCC3=O)cc2)c1C	-9%
Cn1c(=O)c2c(nc(N/N=C/c3ccc(OC(=O)c4ccco4)cc3)n2Cc2ccccc2Cl)n(C)c1=O	?
O=C(CNS(=O)(=O)c1ccc(F)cc1)N1CCN(c2ccccc2)CC1	2%
Cc1csc(NC(=O)CSc2nnc(CCNC(=O)c3cccs3)n2C)n1	-13%
CCCCCCCC/C=C\CCCCCCCC(N)=O	-8%&-4%&-10%
CCOc1ccc(N2CC(C(=O)Nc3cc(C)on3)CC2=O)cc1 (centres undefined)	-1%
COC(=O)c1ccccc1NC(=O)CN1CCC(NC(=O)c2ccc(C)cc2)CC1	-14%
Cc1noc(C)c1CSc1nnc2scc(-c3ccccc3)n12	-4%
Fc1ccc(/C=N/NC2=Nc3cccc4cccc2c34)cc1	-14%
CCC(CC)C(=O)c1c[nH]c(C(=O)NCC2CCCO2)c1 (centres undefined)	-25%
CCOC(=O)c1ccccc1NC1CC(=O)N(c2ccccc2C)C1=O (centres undefined)	?

HPGD inh, entries above that show a hit.
SMILES	HPGD inh
COc1ccc(S(=O)(=O)Nc2nnc(C)s2)cc1	32µM*
Cc1c(NS(=O)(=O)c2ccccc2)cc(Cl)c(O)c1C	32µM*
N#Cc1ccc(NC(=O)N2CCC(c3nc4c(nnn4Cc4cccc(Cl)c4)c(=O)[nH]3)CC2)cc1	14µM*

Next section.
SMILES	HPGD inh
COc1ccc(CCNC(=O)CN2C(=O)c3ccccc3C2=O)cc1	-16%
CCc1oc2c(C)c(O)ccc2c(=O)c1-c1ccc2ccccc2n1	-11%
Cc1ccc(-n2c(CNc3ccc(F)cc3)nnc2SCC(=O)N2CCOCC2)cc1	3%
CCn1nnc(-c2ccccc2NS(=O)(=O)c2ccc(S(=O)(=O)N3CCCCCC3)cc2)n1	-11%
CCOCCOC(=O)c1cccc(NC(=O)OCC)c1	-24%
COC(=O)c1ccc(C(NC(=O)OCc2ccccc2)/C(=C/[C@@H](C)C(=O)NCc2cccnc2)c2cccnc2)cc1 (some centres undefined)	-3%
O=C1OC(Nc2ccc(F)cc2F)c2ccccc21 (centres undefined)	-1%
COc1cc2[nH]c(=O)n(CCCCCC(=O)N3CCN(c4ccccn4)CC3)c(=O)c2cc1OC	?
CCCc1ccc(-c2cc(N)n[nH]2)cc1	-15%
CCOC(=O)C1NN=C(C(=O)c2ccccc2)C1c1ccccc1 (centres undefined)	-15%
COc1cccc(-n2c(CN3CCN(Cc4ccccc4)CC3)nc3ccc([N+](=O)[O-])cc3c2=O)c1	-2%
Cc1ccc2[nH]c(-c3cccc(F)c3)cc(=O)c2c1	?
Cn1nc(OC(=O)Nc2ccc(Cl)cc2)cc1C(F)(F)F	-7%

3 compounds from above, ordered by heavy-atom count, ascending.
SMILES	HPGD inh
Cc1ccc2[nH]c(-c3cccc(F)c3)cc(=O)c2c1	?
COc1cc2[nH]c(=O)n(CCCCCC(=O)N3CCN(c4ccccn4)CC3)c(=O)c2cc1OC	?
COC(=O)c1ccc(C(NC(=O)OCc2ccccc2)/C(=C/[C@@H](C)C(=O)NCc2cccnc2)c2cccnc2)cc1 (some centres undefined)	-3%

Source: PubChem BioAssay
